# Source: PubChem
# A488 fluor: qHTS Assay for Spectroscopic Profiling in A488 Spectral Region | compound autofluorescence, A488 spectral region, dye equivalency; hits give high values | max dye equivalency, M | 0.1% of 59,000 active | AID 591, 2007; active = above 10 nM dye equivalent; inconclusive = 1 to 10 nM; inactive = 1 nM or less; about half of its hits are not listed in these tables;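 further: highest value over a series up to 38 µM; compound alone in buffer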
#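 Read-out: relative fluorescence at 480/540 nm, expressed as Alexa 488 dye-equivalent concentration from a six-point A488 standard included per plate. Conditions: 100 mM Tris, pH 8.0; 15 min incubation, room temperature.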
# TSHR agonist: qHTS Assay for Agonists of the Thyroid Stimulating Hormone Receptor | Thyrotropin receptor (Homo sapiens), P16473 | HEK293-CNG-TSHR cells (CNG channel as cAMP sensor), membrane potential dye, cAMP | Potency, µM (doses to about 57.1 µM), for the others: top-dose activation, actives largely listed as activators | 0.48% of 73,000 active | AID 926, 2007; active = well fitted activation curve of enough size with the parental cells flat; inconclusive = any curve in the parental cells; inactive = parental cells flat and receptor cells flat or falling; further: potency means the concentration at half of the fitted maximal effect; % of control where 0% means no effect; weak receptor curves with flat parental cells got no call and are not listed
# Target sequence (P16473 whole entry, looked up): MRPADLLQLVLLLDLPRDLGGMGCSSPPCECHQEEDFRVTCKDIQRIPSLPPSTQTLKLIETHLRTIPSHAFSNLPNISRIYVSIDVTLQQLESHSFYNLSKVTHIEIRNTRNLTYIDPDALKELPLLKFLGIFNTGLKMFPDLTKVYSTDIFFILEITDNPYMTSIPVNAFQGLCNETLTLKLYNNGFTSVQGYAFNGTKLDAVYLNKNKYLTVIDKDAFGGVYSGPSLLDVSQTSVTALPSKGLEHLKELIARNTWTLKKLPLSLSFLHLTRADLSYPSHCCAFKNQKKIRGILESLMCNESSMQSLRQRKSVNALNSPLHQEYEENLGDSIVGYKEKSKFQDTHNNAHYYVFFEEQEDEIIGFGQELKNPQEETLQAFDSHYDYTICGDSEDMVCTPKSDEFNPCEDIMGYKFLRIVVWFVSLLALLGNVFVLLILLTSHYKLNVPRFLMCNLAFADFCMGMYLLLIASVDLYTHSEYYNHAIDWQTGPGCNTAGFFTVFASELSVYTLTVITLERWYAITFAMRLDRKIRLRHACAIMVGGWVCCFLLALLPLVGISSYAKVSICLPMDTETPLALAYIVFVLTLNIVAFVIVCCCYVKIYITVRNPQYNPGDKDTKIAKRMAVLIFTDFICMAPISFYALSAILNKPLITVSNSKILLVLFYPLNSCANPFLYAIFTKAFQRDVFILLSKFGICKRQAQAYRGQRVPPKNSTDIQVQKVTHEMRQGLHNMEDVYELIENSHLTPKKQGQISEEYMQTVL
#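 cAMP rise detected as CNG-channel membrane depolarization by fluorescent dye (emission 590 nm), 30 min after compound, following 60 min dye loading containing 100 uM RO 20-1724 at room temperature. Cells: TSHR/CNG HEK 293, with parental CNG HEK 293 as control.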
# Resorufin fluor: qHTS Assay for Spectroscopic Profiling in Resorufin Spectral Region; Compound fluorescence, resorufin region 547/598 nm, buffer; hits give high values; max dye-equivalent concentration, M; 0.04% of 59,000 active; active = above 10 nM dye equivalent; inconclusive = 1 to 10 nM; inactive = 1 nM or less; a few of its hits are not listed in these tables; further: highest value over a series up to 38 µM
#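 Dye-equivalent concentration values derive from comparing each well's 547/598 nm fluorescence against resorufin standards included on every plate. Incubation was 15 min at room temperature in 100 mM Tris, pH 8.0.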
# A647 fluor: qHTS Assay for Spectroscopic Profiling in A647 Spectral Region. Compound fluorescence, A647 channel (570/671 nm), Tris buffer. max dye-equivalent concentration, M. 59,000 tested, under 10 active. AID 592, 2007; active means above 1 µM dye equivalent; inconclusive means 0.1 to 1 µM; inactive means 0.1 µM or less;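 further: values scaled relative to a standard on each plate; highest value over a series up to 38 µM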
#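 Buffer was dispensed, compounds and Alexa 647 standards were pin-transferred, and plates sat 15 min at room temperature. Intensity at 570/671 nm was then converted to dye-equivalent concentration using the plate's A647 standard curve.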
# AID923: qHTS Assay for Allosteric/Competitive Inhibitors of Caspase-1: Spectroscopic Profiling in AFC Spectral Region; Potency, µM (highest dose often 57.5 µM), inactives show at the highest dose fluorescence increase, actives largely listed as activators; 1.1% of 75,000 active; compound fluorescence, AFC spectral region (405/520 nm); almost no hit is shown here; active means well fitted activation curve with a large enough effect; inconclusive means small, poorly fitted or top-dose-only effect;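 further: potency means the concentration at half of the fitted maximal effect; 0% is about no effect; scaled to a free AFC standard on each plate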
#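 Titrations up to 57 uM read every 20 sec for 3 min (405/520 nm) with 50 nM caspase 1 and 5 uM Ac-WEHD-AFC, pH 7.5 HEPES buffer. Fluorescence-vs-time intercept gave baseline, scaled against on-plate AFC standard.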
# * = called active by the depositor; i = inactive; ? = inconclusive; / = no result given; [ ] = remark or other dose. A portion of the library; the hit share may differ from the screen's.
SMILES,A488 fluor,TSHR agonist,Resorufin fluor,A647 fluor,AID923
O=C(c1cccc(F)c1)N1CCN(C(=O)c2cc(-c3ccc(Cl)cc3Cl)on2)CC1,i,/,i,1.53e-08,-1.7%
Cc1nc2ccc3nc(NC(=O)c4ccc(S(=O)(=O)N5CCOCC5)cc4)sc3c2s1,i,1.4%[11.4 µM],i,2.46e-08,0.6%
Cc1cc(Br)c(S(=O)(=O)n2nnc3ccccc32)cc1C,i,?,i,3.1e-08,2.1%
O=C(Nc1ncnc2sc3c(c12)CCC3)c1ccco1,i,3.1%,i,1e-09,1.3%
CCN(CC)C(=O)c1ccc(COc2ccccc2Br)o1,i,20.6%,i,1.77e-08,1.2%
O=S(=O)(NCC1CCCO1)c1ccc2c(c1)OCCO2 (centres undefined),i,1.6%,i,5.7e-09,0.1%
COc1cc(C(=O)NCCC(=O)NC2CCCCCCC2)cc(OC)c1OC,i,6.4%,i,1.72e-08,-0.5%
CCOc1ccc(-n2c(Cc3cc(=O)[nH]c(=O)[nH]3)nnc2SCC(N)=O)cc1,i,-3.6%,i,4.4e-08,-0.4%
CCOC(=O)Nc1ccc2c(c1)Nc1ccccc1S2,i,?,i,1.36e-08,-0.7%
CC(=O)Nc1cn(C(C)=O)c(C)n1,i,0.1%[11.4 µM],i,1e-09,-0.1%
Cc1ccc(/C(O)=C2\C(=O)C(=O)N(CC(C)O)C2c2ccc(N(C)C)cc2)cc1 (centres undefined),i,2.1%,i,1e-09,1.4%
CCCc1nc(N)nc2c1C(=O)CC(C)(C)C2,/,-2.7%,/,/,-2.0%
CCOC(=O)c1c(C)[nH]c(C(=O)CSc2nnc(CC(C)c3ccccc3)o2)c1C (centres undefined),i,?,i,1e-09,0.4%
CC1CCCCN1S(=O)(=O)c1ccc2c(c1)CCN2C(=O)CCC(=O)O (centres undefined),i,1.7%,i,1.9e-08,0.1%
CCC(=O)Nc1ccc(-c2nn3c(C)nnc3s2)cc1C,i,3.9%[11.4 µM],i,1e-09,-1.2%
Brc1cccc(-c2nnc3n2CCCCC3)c1,i,1.4%,i,1e-09,2.6%
O=S(=O)(O)c1nc2ccccc2n1Cc1ccc(Cl)cc1,i,18.1%,i,6e-09,-0.2%
COc1ccccc1N1C(=O)N(C(C)=O)C2C1Nc1ccccc1N2C (centres undefined),/,-1.3%,/,/,8.0%
N#CC1=C(SCc2ccccc2)NC(=O)CC1c1ccco1 (centres undefined),/,11.3%,/,/,0.1%
Cc1ccc(OCc2nnc(SCC(=O)Nc3ccc4c(c3)OCO4)n2C)cc1,i,11.5%,i,6.6e-09,-3.3%
O=C(O)CSc1ccc([N+](=O)[O-])cc1[N+](=O)[O-],i,4.7%[11.4 µM],i,1e-09,2.1%[11.5 µM]
Cc1ccc(-c2cn3cccnc3n2)cc1NC(=O)c1ccc(Br)o1,i,4.1%,i,2.58e-08,1.8%
COC(=O)CCC(=O)CN,i,/,i,3.5e-09,/
CCC(C)(C)OC,/,?,/,/,-2.8%

# 4 records picked at random from the list so far:
SMILES,A488 fluor,TSHR agonist,Resorufin fluor,A647 fluor,AID923
Cc1ccc(-c2cn3cccnc3n2)cc1NC(=O)c1ccc(Br)o1,i,4.1%,i,2.58e-08,1.8%
O=S(=O)(O)c1nc2ccccc2n1Cc1ccc(Cl)cc1,i,18.1%,i,6e-09,-0.2%
O=C(O)CSc1ccc([N+](=O)[O-])cc1[N+](=O)[O-],i,4.7%[11.4 µM],i,1e-09,2.1%[11.5 µM]
COc1ccccc1N1C(=O)N(C(C)=O)C2C1Nc1ccccc1N2C (centres undefined),/,-1.3%,/,/,8.0%

# (next part)
SMILES,A488 fluor,TSHR agonist,Resorufin fluor,A647 fluor,AID923
CC(NC(=O)c1cc2ccccc2o1)C(=O)O (centres undefined),i,0.7%,i,5.4e-09,0.0%
Cc1cc(C)n2nc(SCC(=O)c3ccccc3)nc2n1,i,-0.6%,i,1.9e-09,1.5%
CCOC(=O)N1CCC(NC(=O)CN2C(=O)C(CC)Oc3ccc(C)cc32)CC1 (centres undefined),i,19.6%,i,2.22e-08,-1.5%
CCc1nnc(NC(=O)CSc2nnc(C3CCCCC3)n2-c2ccccc2)s1,i,17.6%,i,1.85e-08,1.9%
Cc1ccc(-n2c(SCC(=O)Nc3ccc4c(c3)OCCO4)nnc2-c2ccco2)cc1,i,25.1µM*,i,2.4e-08,-1.9%
CCOC(=O)C1CCN(C(=O)COc2ccc(S(=O)(=O)NC(C)(C)C)cc2)CC1,i,?,i,1.7e-09,1.6%
O=C1CCCc2sccc2N1,/,1.1%,/,/,1.1%
O=C(CSc1nnc(Cc2cc(=O)[nH]c(=O)[nH]2)n1-c1ccccc1)N1CCCCC1,/,1.6%,/,/,-2.8%
O=C(O)CCSc1nc2ccccc2n1CCOc1ccccc1,/,8.4%,/,/,1.4%
NCCSC[C@H](N)C(=O)O,i,2.4%[11.4 µM],i,2.6e-09,-2.5%[11.5 µM]
O=C1CCCC2=C1C1(O)C(=O)c3ccccc3C1(O)O2 (centres undefined),/,-2.4%[11.4 µM],/,/,0.9%
CO[C@@H]1COC(=O)[C@H]2CCCN2C(=O)[C@@H](C)COC(=O)[C@H](COCc2ccccc2)NC(=O)C/C=C\[C@H]1C,/,-2.4%[11.4 µM],/,/,0.6%[11.5 µM]
CCOCCCN1C(=O)CN(C2CCCCC2)C(=O)C1c1ccc(OCC)c(OC)c1 (centres undefined),i,/,i,1e-09,-1.5%
O=C(CC12CC3CC(CC(C3)C1)C2)NCCN1CCOCC1,i,2.1%,i,1.9e-09,-3.2%
COc1ccc(CNc2ncncc2-c2ccccc2Cl)c(OC)c1,i,?,i,1e-09,0.8%
COc1ccc(-c2noc(CN(C)S(=O)(=O)c3ccccc3)n2)cc1OC,i,/,i,1e-09,-0.2%
O=C(O)c1cccc(CSc2nnc(COc3ccccc3)o2)c1,i,21.7%,i,4.9e-09,0.8%
O=C(Nc1nc2n(n1)C(c1ccc(Cl)cc1)CC(c1ccc(Cl)cc1)N2)c1ccco1 (centres undefined),i,0.8%,i,3.13e-08,-0.4%
COc1ccccc1-c1ccc(=O)n(CC(=O)Nc2ccc(C(=O)N3CCCC3)cc2)n1,i,1.1%,i,3.6e-09,1.0%
CC1(C)Cc2ccccc2C(Nn2cnnc2)=N1,/,4.7%,/,/,-1.7%
CS(=O)(=O)N(Cc1ccc(F)cc1)Cc1nc2ccccc2c(=O)[nH]1,i,-5.3%[11.4 µM],i,4.3e-09,-1.8%
CCOC(=O)c1cc(-c2ccc(F)cc2)n(CC(=O)Nc2nccs2)c1C,/,-4.7%,/,/,-1.7%
COC(=O)c1ccccc1NC(=O)C1CCCN(S(=O)(=O)c2ccc(OC)cc2)C1 (centres undefined),i,17.4%,i,1.97e-08,0.6%
Cc1ccc(F)c(NC=C2C(=O)OC(C)(C)OC2=O)c1,/,5.6%,/,/,0.2%
Nc1ncnc2c1ncn2C[C@@H](O)C(=O)O,i,-2.4%[11.4 µM],i,1.33e-08,6.8%[11.5 µM]
Cn1c(=O)c(CCc2ccccc2)nc2cncnc21,i,?,i,2e-08,1.1%
CCOC(=O)N1CCC(Nc2c(Nc3ccc(C)c(C)c3)c(=O)c2=O)CC1,i,-0.8%[11.4 µM],i,1e-09,0.7%
C=CCN=C(CC)C1=C(O)CCCC1=O,i,-7.8%,i,8.8e-09,-0.5%
COCCn1c(=S)[nH]c2cc(C(=O)NCCCN3CCOCC3)ccc2c1=O,i,-16.4%,i,2.8e-09,0.4%
COc1cccc(N2CCN(Cc3nc4ccccc4c(=O)[nH]3)CC2)c1,i,-11.3%,i,1e-09,0.9%
COCCn1cnc2cc(C)c(C)cc21,i,6.0%,i,8.5e-09,0.8%
Fc1ccc(CNc2nc(-c3ccco3)cc(C(F)(F)F)n2)cc1,i,?,i,2.89e-08,2.1%
Oc1cccc(O)c1,/,-0.1%,/,/,1.3%
CCOC(=O)c1c(CN2CCCCC2)oc2ccc(O)cc12,i,15.6%,i,9.4e-09,0.8%
COc1ccc(C(=O)CSc2nnc(-c3cc(C)cc(C)c3)o2)cc1,i,/,i,3.2e-09,0.6%
CC(=O)Nc1ccc2c(c1)nc(CCNC(=O)c1ccccc1)n2C,i,0.3%,i,3.32e-08,-0.5%
CC(Oc1ccc(O)cc1)(P(=O)(O)O)P(=O)(O)O,/,-1.2%,/,/,1.7%
CCCCn1c(/N=C/c2cc(OC)ccc2O)nc2ccccc21,i,11.1%,i,5.5e-09,5.3%
CCn1cc2c(c1-c1cccc(C)c1)c(=O)n(C)c(=O)n2C,i,3.5%,i,1.81e-08,1.0%
COc1ccc(-n2nnc3c(SCC(=O)OCc4ccccc4)ncnc32)cc1,/,5.2%,/,/,1.0%
COc1cccc2c(=O)cc(C)n(CC(=O)Nc3ccc(C)c(C)c3)c12,i,?,i,7.9e-09,3.8%
COc1ccc(CCNC(=O)CSc2nc(O)c(CC(C)C)c(=O)[nH]2)cc1OC,i,-2.0%,i,1e-09,0.8%
Nc1nc2ccccc2n1CCOc1ccccc1Cl,/,3.3%,/,/,-3.2%
CC(NC(N)=O)C12CC3CC(CC(C3)C1)C2 (centres undefined),i,5.7%,i,1.4e-09,4.1%
CC(=O)c1c(C)[nH]c(C(=O)Nc2ccc3c(c2)OCCO3)c1C,i,-5.5%,i,1e-09,0.1%
CCSc1nnc(NC(=O)c2csc3c2CCCC3)s1,i,5.4%,i,1.97e-08,-1.0%
CC(C)C(c1nnnn1Cc1ccc2c(c1)OCO2)N1CCN(c2ccccc2)CC1 (centres undefined),i,?,i,1e-09,0.8%
Cc1ccc(-c2cccc(NC(=O)C3C(C(=O)O)[C@@H]4C=C[C@H]3C4)c2)o1 (some centres undefined),i,-0.7%,i,5e-09,1.0%
CCCc1c(C)c2ccc(OCC(C)=O)cc2oc1=O,i,-3.4%,i,2.2e-08,0.6%
Cc1cccc(CNc2cc(-c3ccccc3C)ncn2)c1,i,?,i,6.1e-09,-1.0%
COc1cccc(/C=N/n2c(C)nc3ccccc32)c1OC,i,?,i,1e-09,0.7%
CCOC(=O)NCc1ccc(CNC(=O)OCC)cc1,/,12.2%[11.4 µM],/,/,0.9%
BrC/C=C/CBr,/,?,/,/,-2.0%
NC(=O)NC(Cc1ccccc1)c1ccccc1 (centres undefined),/,1.1%,/,/,0.5%
COc1ccc(OC)c(NC(=O)c2nnn(Cc3ccccc3C)c2N)c1,i,15.0%,i,1.9e-08,0.3%
COc1ccc(S(=O)(=O)N2CCCCC2)cc1Br,i,6.4%,i,2.04e-08,-1.2%
O=C(NCc1ccco1)C(Cc1ccccc1)N1C(=O)c2ccccc2C1=O (centres undefined),/,-3.7%,/,/,2.3%
CCCCCc1nnc(NC(=O)CS(=O)(=O)Cc2ccccc2)s1,i,21.7%,i,4.6e-09,-1.1%
c1ccc(-c2nnc3sc(CN4CCC5(CC4)OCCO5)cn23)cc1,i,10.1%,i,1e-09,-1.0%
Cc1nc2ccccc2c2oc(C(=O)NCC3COc4ccccc4O3)cc12 (centres undefined),/,?,/,/,-4.9%
# (further entries)
SMILES,A488 fluor,TSHR agonist,Resorufin fluor,A647 fluor,AID923
COC(=O)C1CCN(C(=O)Cc2ccc(OC)c(OC)c2)CC1,i,-9.6%,i,1.95e-08,0.3%
C=CCOc1ccccc1/C=c1\sc2nc(=O)c(C)nn2c1=O,i,1.5%,i,1e-09,-1.0%
CCn1c(CSc2nc3ccccc3[nH]2)n[nH]c1=S,i,2.6%,i,2.76e-08,-1.6%
Cn1c(CSCc2ccc(Cl)c(Cl)c2)nnc1SCC(=O)Nc1nccs1,i,/,i,2.1e-08,-2.4%
CCOc1cc(CN2CCSCC2)ccc1O,/,?,/,/,0.3%
